Screening data deposited in PubChem by several laboratories.
Bead autofluor: flagged as autofluorescent in microsphere protease counterscreen; compound autofluorescence counterscreen, microsphere flow cytometry; stronger effect = higher value; hit rate 3.1% among 360,000; fluorescence intensity (concentration not given with the values);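 active = at least 3 SD above the mean of all compounds, about 16000 in these data; inconclusive = too few beads counted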;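 also: 100 nL of 1 mM stock went into each well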
Sa RN4220 lethal: S. aureus RN4220 growth inhibition | hit rate 0.33% among 330,000 | AID 1259311 | inhibition, % (no concentration beside the values) | OD600, 16 h;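 active = z-score of -3 or lower and OD600 up to 0.18 on both plates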;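 also: plate controls were untreated cells for no effect and reference antibiotic for full effect; stock transfer was 100 nL into about 80 µL; one replicate is shown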
ugtP null kill: kills S. aureus RN4220 lacking UgtP; growth inhibition, % (test concentration not listed); hit rate 0.54% among 330,000; S. aureus RN4220 ugtP deletion, OD600 growth, 16 h; some inactives read as strong as hits;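 active = z-score under -3 and OD600 up to 0.15 on both plates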;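 also: plate controls were untreated wells for no effect and antibiotic for full effect; wells of about 80 µL received 100 nL stock; the first replicate is given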
Mtb hypoxia inh: reduces hypoxia-regulated biosensor signal in M. tuberculosis; M. tuberculosis hypoxia-regulated fluorescent reporter, fluorescence; fluorescence inhibition, % (no concentration beside the values); hit rate 0.1% among 300,000; AID 1159583;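 active = 35 to 45% if threefold the growth effect, above 45% if 1.5-fold the growth effect; inactive = the rest, general growth blockers included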;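 also: wells of about 50 µL received 100 nL stock; 0% = vehicle wells and 100% = reference inhibitor wells; whole bacteria with a GFP reporter of the hypoxia response; strong numbers were not always called active; many hits fall short of the cut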
PrP UTR inh: inhibition of PrP 5' UTR reporter expression. cell-based PrP 5' UTR mRNA reporter, plate reader. inhibition, % (concentration not given with the values). hit rate 0.35% among 340,000;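 active = every replicate at 50% or more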;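 also: 0 = median of the neutral control wells; tested in H4 reporter cells; numbers are from one replicate; inactives centre near -14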
BJeLR viability: BJeLR cell viability loss. AID 1554. inhibition, % (test concentration not listed). hit rate 0.17% among 300,000. BJeLR (HRASV12) viability, CellTiter-Glo ATP luminescence, 48 h; reference of the scale not given here;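 active = replicate mean above 50%; inconclusive = above 50% but judged a plate artefact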;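 also: 50 nL library stock added to about 25 µL; numbers are from one replicate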
Mtb hypoxia inh growth: second read-out of Mtb hypoxia inh, no call of its own (marks repeat the call); growth inhibition, %; measured here: M. tuberculosis growth (absorbance);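 0% = vehicle and 100% = reference antibiotic; read after six days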
* hit, by the source's call; u = inconclusive; x = not tested or not shown.

SMILES,Bead autofluor,Sa RN4220 lethal,ugtP null kill,Mtb hypoxia inh,Mtb hypoxia inh growth,PrP UTR inh,BJeLR viability
O=C(CSc1nc2ccccc2c(=O)n1Cc1ccco1)N1CCCCCC1,21631*,-1.5,-11,0,2,-7,16
COC(=O)N1C(c2ccccc2)C1c1ccccc1 (stereo unspecified),4746,-2.0,13,0,0,-27,10
CC(NC(=O)CCCC1CCCCC1)c1ccc(S(N)(=O)=O)cc1 (stereo unspecified),5979,5.0,-2,16,5,-10,11
O=C(NCc1ccccc1)NC(=O)c1ccccc1F,6535,3.1,2,2,-3,-14,0
CC(=O)c1nc(-c2ccccc2)sc1C,3934,3.0,-2,-14,-2,-21,-3
CCOC(=O)N1CCC(N2C(=O)c3ccccc3C2Nc2cc(C)cc(C)c2)CC1 (stereo unspecified),3627,-3.8,7,-2,-9,-9,-6
CN1C(=O)/C(=C/c2ccc(OCc3ccc(C(=O)O)cc3)c(Cl)c2)NC1=S,3526,44,20,9,17,-19,-6
CC(NC(=O)NC1CCCCC1)c1ccccc1 (stereo unspecified),2537,0.6,0,-1,17,-21,-9
COc1ccc(Br)c(C(=O)Nc2cccc(Cl)c2Cl)c1,2541,2.9,9,2,1,-5,3
COc1ccccc1CN(C)CC(=O)NC1CCCc2ccccc21 (stereo unspecified),2392,-0.2,-6,2,13,-1,3
Cc1ccc(C)c(NC(=O)COC(=O)CNC(=O)C2CCCCC2)c1,3919,3.6,-3,22,12,-20,x
Cc1cc(Br)ccc1NC(=O)CNC(=O)CN1C(=O)NC2(CCCCCC2)C1=O,9753,2.4,6,7,4,-27,-3
CCOC(=O)N1CCN(c2c(NCc3ccccc3OC)c(=O)c2=O)CC1,4784,2.9,-5,-3,10,-5,5
COc1ccc(C2=NOC(C(=O)Nc3cccnc3)C2)cc1OC (stereo unspecified),4748,0.0,-5,3,0,-17,18
O=C(CN1C(=O)c2ccccc2S1(=O)=O)NC(Nc1ccccc1F)C(Cl)(Cl)Cl (stereo unspecified),2475,6.3,5,5,-2,-4,-1
O=C(N/N=C/C1CC2C=CC1C2)c1ccccc1O (stereo unspecified),3425,x,x,x,x,-68,0
Cc1cc(-n2cnnn2)ccc1C(C)C,1966,10,-4,6,3,-16,1
CN(CCNC(=O)C1CC(=O)N(c2ccc(F)c(Cl)c2)C1)Cc1ccccc1 (stereo unspecified),7307,5.2,11,9,5,-19,-2
O=C(O)CC12CC3CC(C1)CC(n1ncc(NCc4ccccc4Cl)c(Cl)c1=O)(C3)C2,4475,1.9,2,3,8,-10,5
Cc1ccc(S(=O)(=O)NC(=O)c2cccc(N(C)C)c2)cc1,4021,4.3,4,-8,-6,-17,x
Cc1cccc(NC(=O)CSc2ncnc3sc(C)cc23)c1,3033,-3.0,-21,-1,-12,-28,-1
O=C1OCCN1C(=O)[C@H]1[C@H](c2ccc(Cl)cc2)C(c2ccc(F)cc2)=NN1c1ccccc1,3769,-3.7,14,0,5,-1,x
COc1ccc(OC)c2c1CCC1NCCOC21 (stereo unspecified),2419,6.4,-2,0,9,-7,-3
CCCn1c(N)c(C(=O)COC(=O)c2c(C)noc2C)c(=O)n(C)c1=O,4307,-0.7,-1,x,x,-16,2
CC(C)c1ccc(NC(=O)C(c2ccccc2)N2CCN(C(=O)c3ccco3)CC2)cc1 (stereo unspecified),4160,1.9,4,x,x,-30,-4

The final five records of the part before are carried over, then new ones follow:
SMILES,Bead autofluor,Sa RN4220 lethal,ugtP null kill,Mtb hypoxia inh,Mtb hypoxia inh growth,PrP UTR inh,BJeLR viability
Cc1cccc(NC(=O)CSc2ncnc3sc(C)cc23)c1,3033,-3.0,-21,-1,-12,-28,-1
O=C1OCCN1C(=O)[C@H]1[C@H](c2ccc(Cl)cc2)C(c2ccc(F)cc2)=NN1c1ccccc1,3769,-3.7,14,0,5,-1,x
COc1ccc(OC)c2c1CCC1NCCOC21 (stereo unspecified),2419,6.4,-2,0,9,-7,-3
CCCn1c(N)c(C(=O)COC(=O)c2c(C)noc2C)c(=O)n(C)c1=O,4307,-0.7,-1,x,x,-16,2
CC(C)c1ccc(NC(=O)C(c2ccccc2)N2CCN(C(=O)c3ccco3)CC2)cc1 (stereo unspecified),4160,1.9,4,x,x,-30,-4
CCOc1ccc(NC(=O)N(CCN(C)C)C(C)c2cccnc2)cc1 (stereo unspecified),4847,2.6,8,2,0,4,14
C[C@H](CO)N1C[C@H](C)[C@@H](CN(C)C(=O)Nc2ccccc2)Oc2c(NS(=O)(=O)c3cn(C)cn3)cccc2C1=O,3568,3.5,8,4,-8,-35,x
CC(=O)c1cccc(NS(=O)(=O)c2c(C(=O)N3CCOCC3)c(C)n(C)c2C)c1,5602,0.2,3,11,2,-4,0
COC(=O)C1=C(C)OC(N)=C(C#N)C1c1ccccc1 (stereo unspecified),3891,2.2,1,4,5,-5,-3
CC(Sc1nc(N)cc(=O)[nH]1)C(=O)N1CCOCC1 (stereo unspecified),7361,-0.7,-3,-2,8,-8,x
CCOC(=O)C1=C(C)N=c2s/c(=C\c3ccc(OC(C)=O)c(OCC)c3)c(=O)n2C1/C=C/c1ccccc1 (stereo unspecified),4424,x,x,x,x,-21,-26
c1ccc(Oc2cc(-n3cccn3)ncn2)cc1,2430,-0.8,-5,-5,9,-55,7
O=C(O)CNC(=O)/C=C/c1ccc(Cl)cc1Cl,3318,-1.8,2,5,-1,-26,7
Cn1ncc([N+](=O)[O-])c1C(=O)NN=Cc1c[nH]c2ccccc12,x,2.2,3,-18,11,x,x
O=C(c1ccco1)N1CCN(C(=S)Nc2ccccc2Cl)CC1,x,3.0,8,4,-18,3,-9
O=C(NCCc1ccc(Cl)cc1)C1CCN(S(=O)(=O)c2ccc(-n3cnnn3)cc2)CC1,9952,-1.4,-11,6,12,-34,-1
Cc1ccc(C(=O)N2CCN(c3nc4ccccc4n3C)CC2)cc1,3042,3.5,13,-5,-5,-12,-3
CCc1ccc(/C=C\C(=O)N2CCc3ccccc3C2)cc1,1990,3.1,4,x,x,-24,5
Cc1ccc(S(=O)(=O)N2CCCCC2)cc1NC(=O)CNCc1ccco1,4137,4.4,9,6,3,-11,-4
CC(C)NC(=O)CN1C(=O)CSc2ccc(S(=O)(=O)N3CCCC3)cc21,4114,2.6,9,2,9,-23,0
O=C(NC1CCSC1=O)C1CC(=O)N(c2ccc(F)cc2)C1 (stereo unspecified),u,2.6,11,3,12,-26,-2
Cc1ccc(/C(O)=C2/C(=O)C(=O)N(CC(=O)O)C2c2ccc([N+](=O)[O-])cc2)cc1 (stereo unspecified),4390,x,x,x,x,-14,-5
CCOc1ccc(C(=O)CCC(=O)N(CC)CC(=O)NCc2cccs2)cc1,u,2.5,11,-1,-4,-12,25
CC(C(=O)Nc1nc(-c2ccc(F)c(F)c2)cs1)N1C(=O)C2CC=CCC2C1=O (stereo unspecified),6859,17,3,5,4,-10,x
COc1ccc(C(=O)COC(=O)c2cc(=O)c3ccccc3o2)cc1,2680,2.5,3,1,2,-5,x
C/C(=N\N1CCCCCC1)c1c(O)n(-c2ccccc2)c(=O)[nH]c1=O,2233,0.9,2,0,4,-30,0
O=C(CCn1c(=O)[nH]c2ccsc2c1=O)N1CCN(c2cccc(Cl)c2)CC1,u,5.9,-2,5,10,-13,-18
O=C(Nc1ncc(Br)s1)C1CCCN1S(=O)(=O)c1cccc2cccnc12 (stereo unspecified),5000,-0.3,2,x,x,-17,10
Cc1cc(C)cc(-c2nnc(SCC(=O)Nc3cc(C)on3)o2)c1,4299,1.9,6,6,-5,-6,x
CNC(=O)c1ccc(-c2ccc(OC)cc2)s1,2114,4.8,1,x,x,-57,8
CCC(=O)Nc1ccc(C(=O)N/N=C/c2cc(Br)c(OC)cc2OC)cc1,2019,x,x,x,x,-10,5
COc1ccc(C(=O)OCC(=O)c2c(N)n(C)c(=O)n(C)c2=O)cc1OC,3192,6.0,5,10,10,26,5
COc1cc(OC)cc(-c2cc3cc(F)ccc3cn2)c1,2975,13,-25,12,4,-35,x
CCn1c(SCC(=O)N2CCc3ccccc3C2)nc2sc(C)c(C)c2c1=O,2100,3.0,2,4,-2,-26,-11
O=C(CN1CCc2ccccc2C1)NCc1ccco1,19256*,3.8,3,9,10,-19,1
O=C1c2ccccc2CCCC12N=NCC2c1cccc2ccccc12 (stereo unspecified),3455,-15,5,14,7,-6,-6
COc1ccc(CCNC(=O)CSC(=O)c2ccccc2)cc1OC,2174,4.3,6,-4,-9,-12,-2
CC(=O)c1c(C)[nH]c(C(=O)NCc2cccc(Cl)c2)c1C,4737,3.8,16,13,7,-20,0
COc1cccc(-c2csc(N3CCN(C(=O)C4CCCCC4)CC3)n2)c1,10548,6.2,-15,-1,-7,x,1
COc1ccc(S(=O)(=O)Nc2ccc3c(c2)CC(=O)N(C(C)CO)CC(C)C(CN(C)C(=O)Nc2ccc4c(c2)OCO4)O3)cc1 (stereo unspecified),x,8.2,8,-2,0,x,x
COc1ccc(CCNC(=O)CNC(=O)c2ccc3c(c2)OCO3)cc1OC,4116,4.6,-1,-6,-4,-19,-14
O=C(COC(=O)c1ccccn1)NCCCc1ccccc1,2866,7.0,-1,8,6,-16,-9
CCN(c1cccc(C)c1)S(=O)(=O)c1c(C)[nH]c(C)c1C(=O)N1CCCCC1,5879,3.8,1,12,1,-14,-19
COc1cccc(NC(=O)Nc2ccccc2C(N)=O)c1,2572,0.5,2,-4,8,12,4
O=C1c2cccnc2C(=O)N1Cc1ccc(S(=O)(=O)N2CCOc3ccccc32)cc1,5263,-1.7,-3,-7,0,-10,18
O=C(CSc1ccccc1)Nc1ccc(Cl)c(S(=O)(=O)N2CCOCC2)c1,2902,1.5,3,4,-5,-21,x
CCOCCCNC(=O)C(c1ccc(C)cc1)N1CCOCC1 (stereo unspecified),5822,3.7,2,1,4,-12,2
COC(=O)c1ccc(CSc2nnc(NC(C)C)s2)o1,3942,4.6,-3,11,5,-22,-2
Cc1ccc(S(=O)(=O)N2CCC(C(=O)OCC(=O)NCCc3ccccc3)CC2)cc1C,u,3.6,0,1,11,-8,9
O=C(COC(=O)COc1ccc(Br)cc1)NCC1CCCO1 (stereo unspecified),3712,4.3,0,12,9,-14,x
O=C(c1cccc(S(=O)(=O)N2CCOCC2)c1)N(Cc1ccc(F)cc1)Cc1ccco1,4523,0.2,7,17,-3,-25,1
CCOP(=O)(CC(C(C)=O)C(O)c1ccccc1)OCC (stereo unspecified),2956,1.8,3,3,1,-14,-1
